# A647 fluor = A647 region autofluorescence. Compound fluorescence, A647 channel (570/671 nm), Tris buffer. max dye-equivalent concentration, M. 59,000 tested, under 10 active. AID 592; active means above 1 µM dye equivalent; inconclusive means 0.1 to 1 µM; inactive means 0.1 µM or less;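 note: values scaled relative to a standard on each plate; highest value over a series up to 38 µM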
#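 Fluorescence read (570 nm ex, 671 nm em) after 15 min RT incubation of compounds in 100 mM Tris buffer, pH 8.0; values expressed as dye-equivalent concentration against a six-point A647 standard series on each plate.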
# TSHR ag = TSH receptor (human) agonism | Potency, µM (top dose mostly 57.1 µM), without a hit: top-dose activation, actives largely listed as activators | HEK293-CNG-TSHR cells (CNG channel as cAMP sensor), membrane potential dye, cAMP | P16473 | hit rate 0.48% among 73,000; active = well fitted activation curve of enough size with the parental cells flat; inconclusive = any curve in the parental cells; inactive = parental cells flat and receptor cells flat or falling; note: potency is the fitted concentration of half-maximal effect; % of control where 0% means no effect; weak receptor curves with flat parental cells got no call and are not listed
# Target sequence (P16473 whole entry, looked up): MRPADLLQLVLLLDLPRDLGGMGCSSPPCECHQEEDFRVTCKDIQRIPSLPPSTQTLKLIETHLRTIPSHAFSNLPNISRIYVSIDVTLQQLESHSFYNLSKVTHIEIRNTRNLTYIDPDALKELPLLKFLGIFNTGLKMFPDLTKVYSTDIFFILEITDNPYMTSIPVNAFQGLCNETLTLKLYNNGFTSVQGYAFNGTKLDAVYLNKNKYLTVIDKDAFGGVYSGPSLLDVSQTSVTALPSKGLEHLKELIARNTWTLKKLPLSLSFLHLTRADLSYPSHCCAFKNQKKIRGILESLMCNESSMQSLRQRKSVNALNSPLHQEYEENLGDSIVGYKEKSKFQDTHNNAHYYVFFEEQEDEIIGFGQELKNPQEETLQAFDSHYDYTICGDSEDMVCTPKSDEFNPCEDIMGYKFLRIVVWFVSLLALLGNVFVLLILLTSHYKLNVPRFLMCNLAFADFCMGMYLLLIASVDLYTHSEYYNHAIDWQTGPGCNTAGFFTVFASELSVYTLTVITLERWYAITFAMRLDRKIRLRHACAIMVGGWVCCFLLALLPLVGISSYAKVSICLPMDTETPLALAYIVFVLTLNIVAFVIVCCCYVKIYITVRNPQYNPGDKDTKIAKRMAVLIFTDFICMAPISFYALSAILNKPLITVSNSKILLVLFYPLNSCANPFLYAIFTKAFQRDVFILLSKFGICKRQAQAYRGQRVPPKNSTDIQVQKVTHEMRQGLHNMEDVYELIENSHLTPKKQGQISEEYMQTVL
#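 HEK 293 cells stably expressing TSHR and a cAMP-gated CNG channel; parental CNG-only cells as counterscreen. Cells preloaded 60 min with membrane potential dye plus 100 uM RO 20-1724, then compound 30 min; fluorescence read at 590 nm.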
# AID923 = qHTS Assay for Allosteric/Competitive Inhibitors of Caspase-1: Spectroscopic Profiling in AFC Spectral Region; AID 923, 2007; Potency, µM (highest dose often 57.5 µM), for inactives: top-dose fluorescence increase, actives largely listed as activators; hit rate 1.1% among 75,000; compound fluorescence, AFC spectral region (405/520 nm); almost no hit is shown here; active = well fitted activation curve with a large enough effect; inconclusive = small, poorly fitted or top-dose-only effect;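 note: potency is the fitted concentration of half-maximal effect; 0% is about no effect; scaled to a free AFC standard on each plate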
#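 Baseline compound fluorescence (AFC region, 405 nm ex/520 nm em) taken from the intercept of kinetic reads with 50 nM caspase-1 and 5 uM Ac-WEHD-AFC; normalized to an on-plate AFC standard curve; compounds titrated up to 57 uM.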
# A488 fluor = A488 region autofluorescence | hit rate 0.1% among 59,000 | compound autofluorescence, A488 spectral region, dye equivalency; stronger effect = higher value | max dye equivalency, M; active = above 10 nM dye equivalent; inconclusive = 1 to 10 nM; inactive = 1 nM or less; about half of its hits are not listed in these tables;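 note: highest value over a series up to 38 µM; compound alone in buffer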
#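 Compound autofluorescence was read in 100 mM Tris pH 8.0 after 15 min at room temperature, ex 480 nm/em 540 nm. Intensities were converted to A488 dye-equivalent concentration using an on-plate six-point A488 standard curve.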
# Resorufin autofl = compound fluoresces in the resorufin spectral region. Compound fluorescence, resorufin region 547/598 nm, buffer; stronger effect = higher value. max dye-equivalent concentration, M. hit rate 0.04% among 59,000; active = above 10 nM dye equivalent; inconclusive = 1 to 10 nM; inactive = 1 nM or less; a few of its hits are not listed in these tables; note: highest value over a series up to 38 µM
#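 Tris 100 mM pH 8.0; compound added, 15 min RT; CCD imager read, ex 547 nm/em 598 nm; signal normalized to resorufin standard curve (six concentrations per plate) as dye-equivalent concentration.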
# * = called active by the depositor; i = inactive; ? = inconclusive; . = not tested or not shown; & = joins results of further samples; [ ] = another dose, or the depositor's remark. Only part of the results is shown; the hit share may differ from the screen's.
Molecule	A647 fluor	TSHR ag	AID923	A488 fluor	Resorufin autofl
Cc1cc(Cl)ccc1OCC(=O)NCCC(=O)O	.	6%	-0.6%	.	.
Fc1ccccc1Cn1nnc2c(-n3ccnc3)ncnc21	1e-09	5%	2.2%	i	i
CC1=CC2=C(OC1N(C)C)c1cccc3cccc(c13)C2=O (centres undefined)	.	-10%	17%	.	.
O=C(CSc1nnc2scc(-c3ccccc3)n12)NCc1ccc2c(c1)OCO2	2.1e-08	.	-1.4%	i	i
Nc1nnc(SCC(=O)c2ccccc2)s1	.	2%	-0.5%	.	.
CCOC(=O)[C@]1(C(NC(=O)OC)c2cccc(F)c2)CCCC1=O (some centres undefined)	.	-1%[11.4 µM]	0.7%[11.5 µM]	.	.
CC1CCN(c2nc3ccccc3nc2C(C#N)C(=O)OC2CCCCC2)CC1 (centres undefined)	5.2e-09	1%	5.4%	i	i
O=C(Nc1nc2ccccc2n1CCOc1ccc(Cl)cc1)c1ccco1	.	?	-0.4%	.	.
COc1cc2c(cc1NC(C)=O)CCCC2	.	-2%[11.4 µM]	-0.1%	.	.
CCCC1C(c2ccccc2)C(C#N)(C#N)C2(C#N)CC1(N)NC2=O (centres undefined)	3.2e-09	?	-1.7%	i	i
COc1cc(C(=O)Nc2nc(N)n(-c3ccccc3)n2)cc(OC)c1OC	1e-09	1%	1.1%	i	i
CCOc1ccc(-c2nnn(CC(=O)c3ccc4c(c3)OCCO4)n2)cc1	8.1e-09	24%	0.4%	i	i
Clc1ccc(NCc2nncn2-c2ccccc2)cc1	4.9e-08	1%	1.9%	i	i
CCOCCCNC(=O)c1ccc(OC(C)=O)cc1	2e-08	0%	1.3%	i	i
CCN(CC)c1ccc2cc(C(=O)O)c(=O)oc2c1	3.2e-08	7%	-0.7%	i	i
CCCCCCCCCCCCCCCC(=O)O[C@H](CC(=O)O)C[N+](C)(C)C	5e-08	?	2.3%&-4.8%	i	i
CCCN(CCC)C(C(=O)Nc1cccc(OC)c1)c1ccccc1 (centres undefined)	7.9e-09	?	-2.9%	i	i
CC(C(=O)NC1=NCCS1)N1C(=O)c2ccccc2C1=O (centres undefined)	2.2e-08	-1%	-0.9%	i	i
CCOc1cc(N2CCOCC2)c(OCC)cc1NC(=O)COC(=O)c1cc(C)oc1C	4e-09	-8%	1.5%	i	i
COc1ccccc1NC(=O)CSc1nnc(Cn2nnc(-c3ccccc3)n2)n1-c1ccccc1	1e-09	14%	-1.5%	i	i
O=C(Nc1cccnc1)c1noc2c1CCCCC2	1.5e-08	2%	-1.1%	i	i
CCOC(=O)C1=C(N)OC2=C(C(=O)CCC2)C1c1ccc(C)s1 (centres undefined)	.	?	1.5%	.	.
COc1ccccc1NC(=O)N1CCCC1C(=O)NC12CC3CC(CC(C3)C1)C2 (centres undefined)	1.7e-08	11%	0.4%	i	i
O=C1c2ccccc2C(=O)N1CSc1ncccn1	.	2%	0.1%	.	.
Cc1nn2c(-c3cccc(NC(=O)c4ccco4)c3)nnc2c2ccccc12	3.9e-09	7%	0.4%	i	i

# The final 3 records of the section above open the next one.
Molecule	A647 fluor	TSHR ag	AID923	A488 fluor	Resorufin autofl
COc1ccccc1NC(=O)N1CCCC1C(=O)NC12CC3CC(CC(C3)C1)C2 (centres undefined)	1.7e-08	11%	0.4%	i	i
O=C1c2ccccc2C(=O)N1CSc1ncccn1	.	2%	0.1%	.	.
Cc1nn2c(-c3cccc(NC(=O)c4ccco4)c3)nnc2c2ccccc12	3.9e-09	7%	0.4%	i	i
CCOC(=O)CN1CC23C=CC(O2)C(C(=O)Nc2cc(OC)ccc2OC)C3C1=O (centres undefined)	.	1%	-1.9%	.	.
CCN1C(=O)C(C(=O)Nc2ccc(OC)cc2)C2CC1(C)Oc1ccccc12 (centres undefined)	1.7e-08	11%	0.5%	i	i
Cc1ccc(CNC(=O)c2cccc(OCc3c(C)noc3C)c2)cc1	1.8e-08	?	0.3%	i	i
CCNS(=O)(=O)c1ccc(OC)c(C)c1	3.2e-09	-15%	-2.2%	i	i
O=C(OCC(=O)c1c[nH]c2ccccc12)C1=COCCO1	2e-08	-6%	-2.0%	i	i
COc1ccc(C2C(C(=O)N3CCCC3)CC(=O)N2c2ccc(OC)cc2)cc1 (centres undefined)	1.9e-08	7%[11.4 µM]	-1.3%	i	i
O=c1ccn(Cc2ccccc2)c(=O)n1Cc1ccccc1	1.5e-08	2%	-1.0%	i	i
O=C(c1ccc(COc2ccccc2Br)o1)N1CCCCCC1	1e-09	?	-1.8%	i	i
CCC(=O)N1CCc2cc(Br)cc(S(=O)(=O)N3CCN(C(=O)c4ccco4)CC3)c21	1e-09	5%[11.4 µM]	-0.9%	i	i
Cc1ccc(-c2nc3nc4ccccc4nc3n2Cc2ccco2)cc1	5.9e-09	?	-1.3%	i	i
COc1ccc(S(=O)(=O)NCCCN2CCOCC2)c2ccccc12	4.1e-08	11%	0.7%	i	i
COc1ccccc1-c1cncnc1Nc1ccc(F)cc1	1.8e-08	22%	-0.5%	i	i
CCC(C(=O)NC1CCCC1)N(Cc1ccc2c(c1)OCO2)C(=O)c1snc(C(N)=O)c1N (centres undefined)	1e-09	?	13%	i	i
CCOC(=O)c1sc2nc(C)cc(C)c2c1N	.	20%	17%	.	.
CCOC(=O)c1ccc(Cn2c(-c3ccccc3)nnc2-c2ccccc2)o1	4.8e-09	?	-0.9%	i	i
CC(=O)NCc1nc2ccccc2n1Cc1ccccc1F	1e-08	0%[11.4 µM]	-0.4%	i	i
COc1cccc(-c2nc(CS(=O)(=O)CC(=O)NCc3ccccc3OC)c(C)o2)c1	.	?	-2.4%	.	.
O=C1c2oc3ccccc3c(=O)c2C(c2ccccn2)N1Cc1ccccc1 (centres undefined)	1.3e-08	12%	-2.2%	i	i
Cc1ccc(Cn2nnc3c(=O)n(CC(=O)NCc4ccco4)cnc32)cc1	4.6e-08	6%	0.0%	i	i
CCCCCCc1ccc(-c2ncc(N)cn2)cc1	.	-8%	-0.3%	.	.
COc1ccccc1C1(CC(=O)O)CCOC(C)(C)C1 (centres undefined)	.	-10%[11.4 µM]	1.4%	.	.
COc1cc(OC)cc(C(=O)N2CCN(c3ccccc3F)CC2)c1	1.4e-09	11%	-2.2%	i	i
CN(C)c1nc(OCCNC(=O)Nc2ccccc2)nc(N(C)C)n1	1.5e-09	.	.	i	i
CCOC(=O)c1sc(-n2[nH]c(C)cc2=O)nc1C	6.1e-09	.	.	i	i
Cc1ccc(/C=C/C2=Cc3c(sc(NC(=O)CSc4n[nH]c(N)n4)c3C#N)C(C)(C)C2)o1	3.9e-08	?	11%	?	2.4e-08M*

# (continued)
smiles,A647 fluor,TSHR ag,AID923,A488 fluor,Resorufin autofl
O=C(O)CNS(=O)(=O)c1ccc(Br)s1,4.5e-09,1%,0.2%,i,i
CSc1ncccc1C(=O)OCC(=O)NC1CCS(=O)(=O)C1 (centres undefined),2.2e-08,-2%,-0.4%,i,i
CC1CCN(c2c(NCc3ccc(C(=O)N4c5ccccc5CC4C)cc3)c(=O)c2=O)CC1 (centres undefined),.,3%,-3.4%,.,.
CC(C)CC1NC(=O)N(CC(=O)N2CCN(S(=O)(=O)c3ccc(Cl)cc3)CC2)C1=O (centres undefined),7.8e-09,0%,0.0%,i,i
O=C(O)CCn1c(=O)c2ccccc2c2ccccc2c1=O,1.5e-09,-5%,1.9%,i,i
Cc1oc(-c2ccccc2F)nc1CSCC(=O)NCc1ccc2c(c1)OCO2,1.4e-08,?,-0.1%,i,i
O=C(N1CCOCC1)N1CCN(S(=O)(=O)N2CCCCC2)CC1,1.2e-08,-12%,0.7%,i,i
CN1CCN(c2ccc(NC(=O)COc3ccccc3Cl)cc2)CC1,1.4e-08,-18%,3.0%,i,i
CSC(=NCCCN1CCOCC1)NS(=O)(=O)c1cccs1,1.8e-08,21%[11.4 µM],-1.6%,i,i
Cc1ccc(S(=O)(=O)N2CCCC2C(=O)N2CCCCCC2)cc1 (centres undefined),1.9e-08,0%,-1.7%,i,i
Cc1cccc2cc(CN(CCCN3CCOCC3)Cc3nnnn3C(C)(C)C)c(=O)[nH]c12,1.2e-08,22%,-0.3%,i,i
CN(C)CCNC(=O)Cn1nc(-c2ccc(Cl)cc2)ccc1=O,1e-09,5%,3.0%,i,i
O=C(N1CCC(O)(c2cccnc2)CC1)C12CC3CC(CC(C3)C1)C2,2e-08,-5%,0.2%,i,i
Fc1ccc2nc3n(c2c1F)CCCCCC3,6e-09,3%,0.9%,i,i
NC(=O)C1(N2CCCCC2)CCN(Cc2ccccc2Cl)CC1,7e-09,1%,-0.3%,i,i
CCOP1(=O)C=C(C(C)(C)C)OC1c1ccc(F)cc1 (centres undefined),2.1e-08,5%,0.8%,i,i
Cc1cc(C(F)F)n2nc(C(=O)Nc3ccc(F)cc3F)nc2n1,2.9e-08,-2%,0.2%,i,i
OCCNc1nc(C2CC2)nc2c1nnn2Cc1ccccc1Cl,2.8e-08,11%,1.0%,i,i
COc1cc(OC)c(C(=O)NC2CCCCCC2)cc1OC,1e-09,13%,-1.3%,i,i
COc1ccc(S(=O)(=O)N2CCC(C(=O)NCCc3ccc4c(c3)OCO4)CC2)cc1,4e-09,?,-1.2%,i,i
CCOC(=O)CNC(=O)Cn1cnc2c(nnn2-c2ccc(C)cc2)c1=O,2.6e-09,1%,1.0%,i,i
N#Cc1cccc(-n2nnnc2-c2ccccn2)c1,1e-09,?,1.0%,i,i
Cn1nnc(C(O)CN2CCOCC2)n1 (centres undefined),6.3e-09,-6%,-3.3%,i,i
Cc1ccc(C)c(C(=O)CCC(=O)Nc2cccnc2)c1,5.7e-08,4%,-1.4%,i,i
CC(=O)N1CCCc2cc(S(=O)(=O)NCCC3=CCCCC3)ccc21,1e-09,.,-1.6%,i,i
CCCC(=O)N1CC2(CCC)CN(C(=O)CCC)CC(CCC)(C1)C2=O,2.5e-08,-3%[11.4 µM],0.0%,i,i
CCCCNC(=O)CC(=O)Nc1ccccc1C(=O)O,1e-09,-3%,0.9%,i,i
CC1C(C#N)=C(N)OC2=C1C(=O)CCC2 (centres undefined),1.5e-08,-1%,2.9%,i,i
CCC/C=C(\CCC)C(NC(=O)c1ccccc1)c1ccccc1 (centres undefined),.,?,2.0%,.,.
Cn1c(=O)cc(SCC(=O)N2CCN(c3ccccn3)CC2)c2ccccc21,1e-09,1%,-1.8%,i,i
Fc1cccc(Cl)c1Cn1nnc2c(-n3ccnc3)ncnc21,5.1e-08,20%,3.5%,i,i
O=S1(=O)N=C(N2CCCc3ccccc32)c2ccccc21,.,5%,2.5%,.,.
CCOC(=O)C1(CC)NC(c2ccc(N(C)C)cc2)C2C(=O)N(C)C(=O)C21 (centres undefined),3.2e-09,?,-0.5%,i,i
Cn1cc(S(=O)(=O)NCc2ccco2)c(=O)n(C)c1=O,.,11%,0.9%,.,.

# Assay outcomes (PubChem)
